Screens (PubChem)
D2 potentiator: human D2 receptor positive allosteric modulation | P14416 | AID 624464 | DiscoveRx D2 beta-arrestin cells, luminescence, 90 min; 100% = 57 uM dopamine signal | hit rate 0.23% among 360,000 | potentiation, % (no concentration beside the values); active = potentiation of 50% or more; inconclusive = 30% to 50%; inactive = 30% or less;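 note: compound concentration not given in the record; tested on top of an EC20 dose of dopamine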
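PathHunter beta-arrestin assay in DiscoveRx D2 cells. Compounds were added with an EC20 of dopamine (50 nM final) for 90 min at 37 deg C. Luminescence was read 1 h after detection reagent, with 57 uM dopamine as the EC100 control.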
D2 ag: agonists of human D2 dopamine receptor (beta-arrestin); P14416; DiscoveRx PathHunter D2 beta-arrestin, luminescence, 90 min; 100% = 57 uM dopamine signal; activation, % (no concentration beside the values); hit rate 0.084% among 360,000; AID 624465; in the data active = activation above about 40%; inconclusive = about 15% to 40%; inactive = below about 15%; note: compound concentration not given in the record; the text of the record calls up to 30% inactive
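Agonist mode: compounds alone added to overnight-plated D2 PathHunter cells for 90 min at 37 C, with 57 uM final dopamine (EC100) defining full response. Beta-arrestin recruitment detected by chemiluminescent reagent, read after 1 h at ambient temperature.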
Six1-Eya2 inh: inhibitors of human Six1/Eya2 interaction; Q15475+O00167; AlphaScreen GST-Six1/His-Eya2 binding, biochemical; active compounds read low; control for the full effect not named in the record; activity change, % (no concentration beside the values); hit rate 0.56% among 360,000; AID 651725; in the data active = activity change below about -65%; inconclusive = about -30% to -65%; inactive = above about -30%; note: % is set by controls: 0 for no effect and ±100 for the full control effect
Target sequence (O00167 whole entry, looked up): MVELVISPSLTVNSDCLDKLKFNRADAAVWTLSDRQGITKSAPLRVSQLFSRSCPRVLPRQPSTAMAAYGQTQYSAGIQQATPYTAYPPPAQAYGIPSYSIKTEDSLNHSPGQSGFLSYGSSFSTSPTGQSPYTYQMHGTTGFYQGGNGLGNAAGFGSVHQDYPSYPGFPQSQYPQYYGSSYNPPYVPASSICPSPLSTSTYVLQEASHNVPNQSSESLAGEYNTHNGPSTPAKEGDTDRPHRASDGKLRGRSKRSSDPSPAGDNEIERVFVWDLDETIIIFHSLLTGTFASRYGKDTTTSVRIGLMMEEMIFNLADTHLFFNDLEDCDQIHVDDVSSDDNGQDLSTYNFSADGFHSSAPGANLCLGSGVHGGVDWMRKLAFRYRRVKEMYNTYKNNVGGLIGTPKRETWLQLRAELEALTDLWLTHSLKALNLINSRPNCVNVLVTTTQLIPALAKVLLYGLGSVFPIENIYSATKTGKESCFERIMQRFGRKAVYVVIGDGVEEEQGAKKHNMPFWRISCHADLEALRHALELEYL
Target sequence (Q15475 whole entry, looked up): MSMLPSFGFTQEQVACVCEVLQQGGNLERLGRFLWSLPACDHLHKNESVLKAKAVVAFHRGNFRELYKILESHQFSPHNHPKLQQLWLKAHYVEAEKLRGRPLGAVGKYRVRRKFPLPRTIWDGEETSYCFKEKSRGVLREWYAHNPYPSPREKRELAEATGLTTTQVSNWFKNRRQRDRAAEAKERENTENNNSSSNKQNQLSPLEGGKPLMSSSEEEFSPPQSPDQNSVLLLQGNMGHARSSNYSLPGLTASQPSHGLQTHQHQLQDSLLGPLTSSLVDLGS
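AlphaScreen with GST-Six1 and His-Eya2 (5X mix: 250 nM and 500 nM), glutathione donor and nickel acceptor beads; buffer 50 mM Tris pH 8.0, 300 mM NaCl, 1 mM TCEP; 1 h at 37 C in the dark.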
TRPML1 agonist: activates the human TRPML1 channel; Q9GZU1; TRPML1-expressing cells, Ca2+ dye fluorescence, FDSS; host cell line not named in the record; reference of the full effect not given here; activation, % (test concentration not listed); hit rate 0.12% among 410,000; AID 624414; in the data active = activation above about 50%; inconclusive = about 30% to 50%; inactive = below about 30%; note: 0% is about no effect; the text of the record puts the active cut at 80%
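In this qHTS format, compounds were pin-transferred onto Ca8-dye-loaded TRPML1-DL cells induced with Tet overnight, and intracellular Ca2+ fluorescence was recorded kinetically for 110 s after a 10 s baseline. A subsequent 4uM final 54-4 (EC80) addition followed by a second 110 s read served as the antagonist phase.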
TRPML1 inh: human mucolipin-1 channel inhibition. Q9GZU1. TRPML1-inducible cells, Ca2+ dye fluorescence, FDSS; active compounds read low; inhibition of EC80 agonist-evoked calcium signal. activity change, negative = inhibition, % (no concentration beside the values). hit rate 0.02% among 390,000. AID 624415; in the data active means activity change below about -50%; inconclusive means about -30% to -50%; inactive means above about -30%;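 note: stimulus is agonist 54-4 at its EC80 concentration; % is set by controls: 0 for no effect and ±100 for the full control effect; compound concentration not given in the record; the text of the record puts the active cut at -80%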
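TRPML1-DL cells, Tet-induced overnight (~16 h, 37 °C) at 1,500 cells/well, were loaded with Ca8 no-wash dye plus quencher for 45-90 min at room temperature. Compounds were pinned during FDSS kinetic reading; agonist 54-4 at EC80 (4 uM final) then added.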
PINK1 expr mod: modulators of PINK1 expression | PINK1 immunofluorescence, high-content cytometry, 24 h | Potency, µM (doses to about 76.6 µM), inactives show top-dose activation (PINK1 increase), hits mostly activators | hit rate 0.2% among 410,000; active = well fitted activation curve with a large enough effect; inconclusive = small, poorly fitted or top-dose-only effect; inactive = flat fitted curve, though single readings scatter; cell line not stated here;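 note: potency is the fitted concentration of half-maximal effect; % of control where 0% means no effect; nearly all actives have a fitted effect of over 65% in size; a mitochondrial uncoupler was the plate control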
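Decision-based qHTS: stable cells, 24 h exposure to five compound concentrations, CCCP as control. Fixed cells stained for PINK1 plus nuclear, mitochondrial and cell markers, cytometer read.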
An asterisk follows results filed as active; ? = inconclusive; . = no result given; [ ] = another dose, or the depositor's remark. An unsorted share of the library. Share with any hit: about 1%.

SMILES	D2 potentiator	D2 ag	Six1-Eya2 inh	TRPML1 agonist	TRPML1 inh	PINK1 expr mod
CN1CCN(C(=O)c2ccc3c(c2)N(Cc2ccccc2)CCS3)CC1	-11	0.7	-10	0.1	1	0.1%
COc1ccc(-c2cc(=O)oc3c(C)c(OCC(=O)NCCCn4ccnc4)ccc23)cc1	-21	-2.3	-13	.	.	2.0%
O=C(COC(=O)CNC(=O)C12CC3CC(CC(C3)C1)C2)Nc1ccccc1	-1	-3.2	5	0.7	0	11%[38.3 µM]
N#CC1=C(N)Oc2[nH]c(=S)[nH]c(=O)c2C12C(=O)Nc1ccccc12 (configuration not stated)	7	?	-8	3.9	-4	0.9%
O=C1CC(N2CCN(c3cccc(C(F)(F)F)c3)CC2)C(=O)N1c1ccccc1F (configuration not stated)	-15	0.3	-3	-0.2	16	0.3%
COC(=O)CSC(C)C(=O)Nc1nnc(C(C)C)s1 (configuration not stated)	1	-4.5	-1	0.4	13	1.0%
Cc1cc(C)n(C(=O)CNC(=O)C(c2ccccc2)c2ccccc2)n1	-4	-0.9	-1	-0.6	-6	3.0%
CCOC(=O)c1cc2c(=O)n3ccccc3nc2n(CCCOC)c1=NC(=O)C(C)Oc1ccccc1 (configuration not stated)	.	.	.	0.8	12	1.8%
Cc1cc([N+](=O)[O-])nn1CC(=O)N1CCc2ccccc2C1	1	-2.8	3	-0.6	-12	8.6%
COc1cccc(N(CC(=O)NC2CCCCC2)C(=O)Cn2nnc(-c3ccc(C)o3)n2)c1	-2	-4.5	0	0.7	2	1.2%
CS(=O)(=O)N(CC(=O)N1CCC(C(N)=O)CC1)c1cc(C(F)(F)F)ccc1Cl	-2	2.2	1	1.0	-5	-0.4%
CN(C)S(=O)(=O)c1cccc(NC(=O)COC(=O)c2cc(=O)c3ccccc3o2)c1	-16	-7.2	3	-0.4	-2	0.9%
Cc1cc2c(=O)n(C)c(SCC(=O)Nc3cccc(O)c3)nc2s1	0	-1.4	-13	0.3	17	0.3%
Cc1ccc2c(=O)c(C(=O)c3ccc(F)cc3)cn(CC(=O)NCc3ccccc3)c2n1	.	.	.	0.8	6	0.8%
Cc1c(C(=O)Nc2ccccc2Br)oc2ccc(S(=O)(=O)N3CCOCC3)cc12	.	.	.	0.8	-15	0.5%
NCC(O)(c1ccc(Cl)cc1)c1ccc(Cl)cc1	-7	1.5	0	4.3	-3	11%
CCCC(C(=O)OCCN(CC)CC)(c1ccccc1)c1ccccc1	-37	-6.0	-20	1.4	39	12%
CC(=O)c1cc(F)c(N2CCN(C(=O)COc3ccc(F)cc3)CC2)cc1C	1	-1.1	3	-0.4	-4	0.1%
Cc1nc2cc(-c3ccccc3)nn2c(C)c1CCC(=O)Nc1ccc(F)cc1F	.	.	.	1.3	-4	-0.5%
CCOc1ccc(NS(=O)(=O)c2cc(C(=O)N3CCCC3)ccc2Cl)cc1	0	-4.5	-5	-0.5	-2	-0.9%

Reprinted from the part before: five compounds, then new ones.
SMILES	D2 potentiator	D2 ag	Six1-Eya2 inh	TRPML1 agonist	TRPML1 inh	PINK1 expr mod
NCC(O)(c1ccc(Cl)cc1)c1ccc(Cl)cc1	-7	1.5	0	4.3	-3	11%
CCCC(C(=O)OCCN(CC)CC)(c1ccccc1)c1ccccc1	-37	-6.0	-20	1.4	39	12%
CC(=O)c1cc(F)c(N2CCN(C(=O)COc3ccc(F)cc3)CC2)cc1C	1	-1.1	3	-0.4	-4	0.1%
Cc1nc2cc(-c3ccccc3)nn2c(C)c1CCC(=O)Nc1ccc(F)cc1F	.	.	.	1.3	-4	-0.5%
CCOc1ccc(NS(=O)(=O)c2cc(C(=O)N3CCCC3)ccc2Cl)cc1	0	-4.5	-5	-0.5	-2	-0.9%
Cc1cccc(-n2c(C)c(C)c3c(N)ncnc32)c1	2	-2.3	-6	0.6	9	-1.7%
COc1ccc(-c2ccc(NS(=O)(=O)c3cc([N+](=O)[O-])ccc3C)cc2)nn1	3	-1.0	1	0.0	-10	0.3%
NC(=O)CSc1nnc(-c2ccccc2F)n1C1CC1	0	-2.5	-3	-0.4	-1	5.6%
COc1ccc(CCNC(=O)CC(=O)N/N=C/c2ccc(C(=O)O)cc2)cc1OC	-21	-6.1	-18	-1.1	-4	2.6%
COc1ccc(-c2nc(CNC(=O)NC3CCCCC3)c(C)o2)c(OC)c1	.	.	.	1.2	-18	2.5%
O=C(C1CC(c2ccc(F)cc2)=NO1)N1CCN(Cc2ccccc2)CC1 (configuration not stated)	-1	-0.4	-3	0.5	42	2.0%
CCCCC(CCCC)=N/N=C/c1c(O)n(CC)c2cc(C3=NNC(=O)CC3)ccc12	-4	-5.7	-13	0.9	-10	2.1%
COc1ccc(C)cc1S(=O)(=O)Nc1ccc(-n2c(C)nc3ccccc3c2=O)cc1	2	0.8	0	0.3	-6	2.2%
CC(C)[C@H](NS(=O)(=O)c1ccccc1)C(=O)Nc1nccs1	-25	-1.9	-22	0.8	-8	5.1%
Cc1cccc(/C(N)=N/OC(=O)c2ccoc2C)c1	8	?	-6	2.6	5	0.5%
O=C(COC(=O)CNC(=O)c1ccc([N+](=O)[O-])o1)Nc1ncc(Cl)cc1Cl	14	5.6	-3	1.3	-11	7.7%
Cc1c(NC(=O)C2C3C=CC(C3)C2C(=O)O)c(=O)n(-c2ccccc2)n1C (configuration not stated)	-2	-2.8	-4	0.9	8	.
COCCn1nnnc1C(C(C)C)N(Cc1ccccc1)Cc1cc2cc(OC)ccc2[nH]c1=O (configuration not stated)	-10	-4.0	-5	1.0	4	1.7%
CC(NC(=O)CSC1=NCCS1)c1ccccc1 (configuration not stated)	-10	-4.2	12	1.2	0	-0.2%
Cc1[nH]c2ccccc2c1C(=O)C(C)OC(=O)c1ccc(NC(=O)CC#N)cc1 (configuration not stated)	3	4.4	-5	0.2	-3	-0.1%
COc1ccccc1NC(=O)c1ccc(NS(=O)(=O)c2ccc(F)c(F)c2F)cc1	-15	-1.8	1	1.4	4	5.1%
CC(C)c1onc(C(=O)NCc2ccc(F)cc2)c1[N+](=O)[O-]	-12	-2.7	0	-0.6	-7	0.0%
O=C(O)c1ccc(S(=O)(=O)Nc2ccc3c(c2)OCCO3)cc1	6	-0.5	0	0.9	31	-0.1%
COc1ccc(-c2cccc(NS(=O)(=O)c3cc([N+](=O)[O-])ccc3C)c2)nn1	3	3.5	-11	0.3	-9	1.7%
CCCn1c2ccccc2c2cnn(CC(=O)NCCCN(Cc3ccccc3)C(C)C)c(=O)c21	.	.	.	2.1	1	4.0%
O=C(CCCNC(=O)/C(=C/c1ccc(Br)cc1)NC(=O)c1ccccc1)OCc1ccccc1	-13	1.5	0	2.1	-16	16%
CCN(CC(=O)NCc1cccs1)C(=O)/C=C/c1cccc(OC)c1OC	-13	-2.6	-1	0.2	-9	-1.6%
COc1ccc(C)cc1S(=O)(=O)N(C)CC(=O)Nc1ccc2c(c1)OCCO2	0	0.0	-2	0.4	20	1.4%[38.3 µM]
CCCC(=O)Nc1cccc(NC(=S)NC(=O)C(C)Oc2ccc(Cl)cc2Cl)c1 (configuration not stated)	17	-0.8	-3	0.0	11	-0.1%
Cc1ccc(CCNC(=O)C2CCCN2S(=O)(=O)c2ccc3c(c2)CCC(=O)N3)cc1 (configuration not stated)	-3	-1.1	-1	1.2	-20	-0.8%
CCCCCn1c(CCNC(=O)c2ccc(F)cc2)nc2ccccc21	.	.	.	0.3	3	2.5%
COc1ccc(-c2cc(OC(=O)c3cccc(C)c3)c3c(C)oc(C)c3c(=O)c2)cc1	.	.	.	-0.2	37	-0.5%
Cc1ccc(-c2[nH]ncc2/C=N/n2c(COc3ccccc3)nc3ccccc3c2=O)cc1	18	3.9	-1	-0.4	-6	-1.1%
CCCN(C(=O)c1c(C)oc2ncn(CC(C)C)c(=O)c12)c1ccccc1C	.	.	.	-1.2	-27	-0.4%
CCOc1ccc(N/C=C/C(=O)c2ccc(C)cc2)c([N+](=O)[O-])c1	-4	-2.8	-4	-0.4	-5	7.0%
Cc1cccc(NC(=O)C2c3ccccc3Oc3ccccc32)n1	0	-4.4	20	4.3	3	3.8%
CCOc1ccc(C2OC34CCCCC3C(C#N)(C#N)C2(C#N)C(=N)O4)cc1OC (configuration not stated)	23	0.6	-15	0.8	-6	-4.3%
Cc1c(NC(=O)CC(=O)Nc2c(C)n(C)n(-c3ccccc3)c2=O)c(=O)n(-c2ccccc2)n1C	-7	1.0	2	0.6	10	.
COc1ccc(NC(=O)CSc2nc(N)c(NC(=O)c3ccccc3F)c(=O)[nH]2)cc1	-13	-2.7	-11	2.1	16	-1.1%
O=C(Nc1ccc(-c2csc(-c3ccccc3)n2)cc1)c1ccccc1	8	1.4	0	-0.5	8	12%
O=C(Nc1ccccc1N1CCOCC1)c1cc(F)cc(F)c1	-2	-0.5	8	-0.9	3	-0.4%
CCOC(=O)N1CCC(NC(=O)c2ccc3c(c2)N(Cc2ccccc2)CCS3)CC1	1	-2.2	-16	3.3	15	-1.8%
Cn1cnc([N+](=O)[O-])c1S(=O)(=O)Oc1ccc(Cl)cc1	-23	-8.4	1	4.3	8	5.6%
C=CC[C@H]1CC(C)=C[C@H](CC=C)N1C(=O)c1cc(COc2ccccc2SC)on1	-20	2.3	1	1.4	24	0.5%
Cc1cc(Br)ccc1NC(=O)CNC(=O)Cc1ccc(S(=O)(=O)N2CCOCC2)s1	-16	-1.5	-3	-0.7	3	-1.8%
Cc1cccc(OCCCC(=O)NC2CCCCC2)c1	-4	0.4	5	-0.8	3	1.4%
COc1cc(C2C3=C(COC3=O)OC(C)(C)Oc3cc4c(cc32)OCO4)cc(OC)c1OC (configuration not stated)	-10	-4.3	25	1.7	-6	1.4%
Cc1ccc(CNCc2cc3c(C(C)(C)C)nn(-c4ccccc4)c3[nH]c2=O)cc1	-38	-6.0	-5	1.6	-2	.
COc1ccc(CNC(=O)C2CC=CCC2C(=O)O)cc1OC (configuration not stated)	-11	-1.4	8	-0.2	38	2.1%
COc1ccc(NC(=O)Nc2ccccc2C(N)=O)cc1OC	-6	-1.9	-7	-0.3	7	-1.1%[38.3 µM]
O=C(O)c1cccnc1-c1ncccc1C(=O)O	-4	-4.1	2	0.2	-4	2.8%
O=C(O)C1C2CCC(CC2)C1C(=O)N1CCN(Cc2ccc(F)cc2)CC1 (configuration not stated)	-20	-5.0	5	-0.3	-5	-1.8%
Cc1cc2nc3n(c2cc1C)CC1CC(C(=O)NCCc2cccs2)N(C)C31 (configuration not stated)	-15	-5.3	2	1.1	-16	-1.0%
O=C(CNC(=O)c1ccc2c(c1)S(=O)(=O)N=C1CCCCCN12)Nc1ccc(F)c(F)c1	-18	-1.5	-3	-0.8	-4	-0.1%
